# High-throughput results: PubChem BioAssay, National Center for Advancing Translational Sciences (NCATS)
# D2 potentiator = human D2 receptor positive allosteric modulation | P14416 | DiscoveRx D2 beta-arrestin cells, luminescence, 90 min; 100% = 57 uM dopamine signal | potentiation, % (concentration not given with the values) | 360,000 compounds, 0.23% hits | AID 624464; active = potentiation of 50% or more; inconclusive = 30% to 50%; inactive = 30% or less;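 note: tested on top of an EC20 dose of dopamine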
# Target sequence (P14416 whole entry, looked up): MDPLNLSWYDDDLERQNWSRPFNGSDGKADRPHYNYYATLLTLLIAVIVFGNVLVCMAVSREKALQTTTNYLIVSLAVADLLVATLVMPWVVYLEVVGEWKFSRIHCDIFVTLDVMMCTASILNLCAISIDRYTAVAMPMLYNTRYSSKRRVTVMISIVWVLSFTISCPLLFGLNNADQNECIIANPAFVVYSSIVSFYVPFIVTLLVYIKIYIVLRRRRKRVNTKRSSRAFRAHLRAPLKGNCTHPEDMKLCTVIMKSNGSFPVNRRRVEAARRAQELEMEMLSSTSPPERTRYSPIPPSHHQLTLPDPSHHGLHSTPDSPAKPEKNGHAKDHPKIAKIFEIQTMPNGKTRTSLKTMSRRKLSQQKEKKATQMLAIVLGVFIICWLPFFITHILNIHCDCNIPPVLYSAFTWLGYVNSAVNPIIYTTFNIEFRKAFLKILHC
#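 PathHunter beta-arrestin assay in DiscoveRx D2 cells. Compounds were added with an EC20 of dopamine (50 nM final) for 90 min at 37 deg C. Luminescence was read 1 h after detection reagent, with 57 uM dopamine as the EC100 control.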
# PINK1 expr mod = PINK1 expression modulation; PINK1 immunofluorescence, high-content cytometry, 24 h; Potency, µM (series often up to 76.6 µM), without a hit: top-dose activation (PINK1 increase), usual class: activators; 410,000 compounds, 0.2% hits; active = well fitted activation curve with a large enough effect; inconclusive = small, poorly fitted or top-dose-only effect; inactive = flat fitted curve, though single readings scatter; cell line not stated here;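 note: potency is the fitted concentration of half-maximal effect; % of control where 0% means no effect; nearly all actives have a fitted effect of over 65% in size; a mitochondrial uncoupler was the plate control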
#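 Readout is PINK1 immunofluorescence, quantified alongside mitochondrial, cell and nuclear markers by laser-scanning microplate cytometry. Cells from a stable line were exposed to compound titrations (5 concentrations) for 24 hours, with CCCP controls.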
# CtBP-E1A blk = inhibitors of CtBP/E1A interaction; AID 651724; AlphaScreen GST-E1A/His-CtBP binding, 1536-well; stronger effect = lower value; control for the full effect not named in the record; 340,000 compounds, 0.49% hits; activity change, % (test concentration not listed); in the data active means activity change below about -65%; inconclusive means about -30% to -65%; inactive means above about -30%; note: % is set by controls: 0 for no effect and ±100 for the full control effect
#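 GST-E1A and His-tagged CtBP (125 nM each as 5X stock) were preincubated with pin-transferred compound for 2 h at 37 °C in the dark, then glutathione donor and nickel acceptor beads were added for 1 h before AlphaScreen reading.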
# D2 agonist = agonists of human D2 dopamine receptor (beta-arrestin) | P14416 | 360,000 compounds, 0.084% hits | activation, % (test concentration not listed) | DiscoveRx PathHunter D2 beta-arrestin, luminescence, 90 min; 100% = 57 uM dopamine signal; in the data active = activation above about 40%; inconclusive = about 15% to 40%; inactive = below about 15%; note: compound concentration not given in the record; the text of the record calls up to 30% inactive
#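 DiscoveRx PathHunter D2 beta-arrestin cells (2,100/well) attached overnight, then compound-stimulated 90 min at 37 C in HBSS/10 mM HEPES/0.1% Tween-20 buffer; beta-galactosidase complementation read by luminescence after 1 h at ambient temperature. Dopamine 57 uM final (EC100) as control.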
# TRPV1 potentiator = enhances activation of the human vanilloid receptor TRPV1; TRPV1-expressing cells, Fluo-8 calcium influx, capsaicin EC20 potentiation; host cell line not named in the record; control for the full effect not named in the record; potentiation, % at 8.33 µM; AID 540277; 320,000 compounds, 0.02% hits; Q8NER1; active means potentiation above 80%; inconclusive means 30% to 80%; inactive means below 30%; note: 0% is about no effect
#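 Cells expressing TRPV1 were dye-loaded with Fluo-8 and read kinetically: 10 s baseline, 3 min after compound (agonist portion), then 2 min after EC20 capsaicin (allosteric enhancer portion). Calcium-bound dye fluorescence at 480/520 nm.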
# Six1-Eya2 inh = inhibitors of human Six1/Eya2 interaction | AID 651725 | AlphaScreen GST-Six1/His-Eya2 binding, biochemical; stronger effect = lower value; control for the full effect not named in the record | Q15475+O00167 | 360,000 compounds, 0.56% hits | activity change, % (test concentration not listed); in the data active = activity change below about -65%; inconclusive = about -30% to -65%; inactive = above about -30%; note: % is set by controls: 0 for no effect and ±100 for the full control effect
#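 GST-Six1 + His-Eya2 (5X stock: 250/500 nM); Tris pH 8.0, 300 mM NaCl, 0.05% BSA, 0.02% Tween 20; GSH donor/Ni acceptor beads; 1 h 37 °C dark; AlphaScreen readout.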
# Sfp PPTase inh = Sfp phosphopantetheinyl transferase inhibition. 310,000 compounds, 3.5% hits. Biochemical Sfp PPTase activity, qHTS. Q9F4F7. Potency, µM, for inactives: max response, negative = inhibition, usual class: inhibitors. AID 1490; active = well fitted inhibition curve with a large enough effect; inconclusive = small, poorly fitted or top-dose-only effect, or another doubt; inactive = no such curve, though single readings can be large or run the other way;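 note: the enzyme is Sfp with the accession as filed and its product quenches rhodamine fluorescence; potency is the fitted concentration of half-maximal effect; 0% = enzyme reaction without inhibitor and -100% = no enzyme wells; top concentration of the series not given in the record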
#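 Fluorescence-quenching assay: 15 nM Sfp-PPTase preincubated 15 min at room temperature with compound, then 5 uM rhodamine-CoA and 12.5 uM BHQ-2-labelled YbbR peptide added. Fluorescence (ex 525/em 598 nm) read at start and after 30 min; difference gives rate.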
# Numbers without * were called inactive; ? = inconclusive; nt = not tested or not shown; & = joins results of further samples; [ ] = dose if it differs, or a comment. Rows are unselected; about 3.7% have a hit in one of these screens.
SMILES,D2 potentiator,PINK1 expr mod,CtBP-E1A blk,D2 agonist,TRPV1 potentiator,Six1-Eya2 inh,Sfp PPTase inh
O=C(NNC(=O)c1cccc(S(=O)(=O)N2CCc3ccccc32)c1)c1ccccc1,-3,-0.7%,2,-1.9,2,2,21%
COc1ccc(CN2C[C@H]3CCCN3c3cc(Br)ccc3S2(=O)=O)cc1,-12,2.2%,2,-1.1,nt,-2,nt
O=C(CNC(=O)c1ccc(Br)o1)NCc1ccc(Cl)cc1Cl,7,10%,-6,-3.0,-18,-10,10%
O=C(CN(Cc1ccc2c(c1)OCO2)C(=O)CSc1nc2ccccc2o1)NC1CCCCC1,-6,-3.5%,-4,-1.1,-4,-7,79µM*
CCSc1nc(-c2ccco2)ccc1C#N,-8,1.1%,10,0.0,2,-1,-5%
O=C(/C(=N/N=C/c1ccc(O)c(O)c1)c1ccccc1)c1ccccc1,1,23%,-19,1.4,0,-25,5%
O=C(N/N=C\c1ccccc1)c1sccc1-n1cccc1,-10,-2.2%,-2,-3.9,-4,-17,-14%
CC1C/C(=N\NC(=O)c2cccnc2)CC(C)(C)C1 (stereo not given),-11,-0.6%,-1,-0.6,-2,-3,-10%
COc1ccc(NC(=O)CSCC(=O)Nc2ccc(C)c(S(=O)(=O)N3CCCCCC3)c2)cc1,-33,1.6%,-2,5.3,-3,-2,nt
COC(=O)c1ccc2c(C)c(C(C)(C)O)[nH]c2c1,3,1.4%,nt,3.3,1,19,-2%
Cc1cccc(C(=Cc2ccc([N+](=O)[O-])cc2)C(=O)O)c1,-5,-2.1%,2,-4.1,nt,0,nt
COc1ccc(NC(=O)CSc2ncnc3c2nnn3-c2ccc(F)cc2)c(OC)c1,-2,9.5%,4,-2.2,1,4,-3%
C[C@H](CO)N1C[C@H](C)[C@@H](CN(C)S(=O)(=O)c2ccccc2)Oc2c(NC(=O)Nc3ccccc3)cccc2C1=O,-4,0.6%,4,1.5,nt,-1,nt
COc1cc(NC(=O)c2ccc3c(=O)n(Cc4ccco4)c(=S)[nH]c3c2)cc(OC)c1OC,-21,5.6%,-1,-2.9,-23,0,?
CCOC(=O)c1c(-c2ccc(C)cc2C)csc1NC(=O)CSc1nnnn1C,-14,0.9%[38.3 µM],6,1.0,-5,-9,-10%
CC1CC(C)CN(S(=O)(=O)c2ccc(C(=O)NCc3ccco3)cc2)C1 (stereo not given),4,-0.4%,0,-0.8,0,-1,17%
COC(=O)CNS(=O)(=O)c1ccc(OC)cc1,-1,-1.8%,2,-2.3,6,-1,15%
CCOC(=O)N1CCN(C(=O)c2cccc(S(=O)(=O)Nc3ccc(OC)cc3)c2)CC1,-22,4.8%,10,-5.3,6,0,nt
Cc1occc1-c1nnc(SCC(=O)N(C)c2ccccc2)o1,-12,1.0%,4,-3.1,-2,-5,nt
NC(=O)c1ccc(NC(=O)COC(=O)C2(c3cccc(F)c3)CCCC2)cc1,12,2.7%,nt,-2.6,-22,0,27%
CC(CNC(=O)c1ccc(OC2CCN(Cc3ccccn3)CC2)cc1)Oc1cccnc1 (stereo not given),-15,0.0%,1,-1.6,-8,-5,20%
Cc1nn(C)c2c(=O)c(=O)c2n(C)[nH]1,-2,0.7%,-10,1.8,25,-14,24%
O=C1CC(N2CCOCC2)C(=O)N1c1ccccc1Cl (stereo not given),-2,5.7%[38.3 µM],-8,-4.7,20,-5,13%
COc1cccc(/C=N/NC(=O)CN(C)S(=O)(=O)c2ccccc2)c1OC,-18,0.6%,6,-1.9,2,8,nt
CCOC(=O)c1c(C)[nH]c(C)c1C(=O)COC(=O)/C=C/c1cccc(C(F)(F)F)c1,-4,7.5%,-2,-0.9,-24,-19,5%

# A portion taken from the entries so far, as a working copy:
SMILES,D2 potentiator,PINK1 expr mod,CtBP-E1A blk,D2 agonist,TRPV1 potentiator,Six1-Eya2 inh,Sfp PPTase inh
Cc1occc1-c1nnc(SCC(=O)N(C)c2ccccc2)o1,-12,1.0%,4,-3.1,-2,-5,nt
NC(=O)c1ccc(NC(=O)COC(=O)C2(c3cccc(F)c3)CCCC2)cc1,12,2.7%,nt,-2.6,-22,0,27%
CC(CNC(=O)c1ccc(OC2CCN(Cc3ccccn3)CC2)cc1)Oc1cccnc1 (stereo not given),-15,0.0%,1,-1.6,-8,-5,20%
Cc1nn(C)c2c(=O)c(=O)c2n(C)[nH]1,-2,0.7%,-10,1.8,25,-14,24%
O=C1CC(N2CCOCC2)C(=O)N1c1ccccc1Cl (stereo not given),-2,5.7%[38.3 µM],-8,-4.7,20,-5,13%
COc1cccc(/C=N/NC(=O)CN(C)S(=O)(=O)c2ccccc2)c1OC,-18,0.6%,6,-1.9,2,8,nt
CCOC(=O)c1c(C)[nH]c(C)c1C(=O)COC(=O)/C=C/c1cccc(C(F)(F)F)c1,-4,7.5%,-2,-0.9,-24,-19,5%

# (more compounds)
SMILES,D2 potentiator,PINK1 expr mod,CtBP-E1A blk,D2 agonist,TRPV1 potentiator,Six1-Eya2 inh,Sfp PPTase inh
CCOC(=O)NN1C(=O)c2ccccc2NC1(C)C,-10,-1.9%,-22,4.9,-16,8,15%
CSC1=NCCN1S(=O)(=O)c1ccc(C)cc1,-5,0.8%,nt,-1.3,?,5,5%
CC(=O)Nc1ccc(Oc2nc(-c3cccnc3)nc3sc4c(c23)CCCC4)cc1,1,-0.1%,7,-4.5,nt,1,nt
O=C(NC1CCCCC1)c1cccc2c1C(=O)c1ccc(N3CCC(Cc4ccccc4)CC3)cc1S2(=O)=O,-4,-0.8%,nt,-6.3,nt,0,nt
CCc1nn2c(=O)cc(COc3cccc(NC(=O)c4ccco4)c3)nc2s1,-2,5.9%,-10,-2.2,23,-2,11%
CCc1nonc1NC(=O)c1oc2cc(C)c(Cl)cc2c1C,-7,2.8%&0.5%,nt,-1.3,-10,4,9%
CC(C)C1C(=O)N(Cc2cn(CCC3OCCO3)nn2)CCS(=O)(=O)N1Cc1ccc(-c2ccc(F)cc2Cl)cc1 (stereo not given),-1,4.3%,-2,-4.3,nt,-2,nt
CCC(=O)N=c1sc2c(OC)ccc(OC)c2n1C,-3,2.8%,3,-5.9,nt,-2,nt
Cc1cccc(N2CC(C(=O)Nc3ccc(N4CCOCC4)cc3)CC2=O)c1C (stereo not given),-21,-0.2%,3,-4.5,nt,-2,nt
CCOC(=O)C1=C(C)NC(SC)=NC1c1ccc(OC)cc1 (stereo not given),-6,0.8%,2,-1.9,0,-3,-11%
CCCC1CC(C)(C(=O)CSc2n[nH]c(-c3ccccc3)n2)OC1=O (stereo not given),-2,2.4%[38.3 µM],9,3.5,-11,5,79µM*
O=C1NC(c2cccc([N+](=O)[O-])c2)=CCN1c1ccccc1O,-7,1.1%,nt,-2.1,-7,6,8%&10%
Cc1cc2nc(SCCN3CCCC3)[nH]c2cc1C,-16,1.2%[38.3 µM],2,-2.8,5,-1,12%
COc1ccc(CCN2CC(C(=O)NCCc3ncccc3C)CCC2=O)cc1 (stereo not given),-3,-1.8%,-3,0.5,nt,11,nt
Cc1occc1C(=O)Nc1cccc(C(F)(F)F)c1,-16,-3.2%,2,0.4,-16,-5,17%
CCOC(=O)C(O)C1CCc2c([nH]c3ccc(C)cc23)C1=O (stereo not given),-6,-2.0%,-2,-2.2,4,-1,-2%
O=c1cc(-c2ccccc2)nc2nc(SCc3ccccc3)[nH]n12,-5,-0.6%,-8,-2.8,8,-1,7%
CN(C)S(=O)(=O)c1ccc(N2CCCC2)c(C(=O)NCC2COc3ccccc3O2)c1 (stereo not given),-13,0.2%,2,-5.3,8,24,nt
CC(C)C[C@@H](CO)N(Cc1ccccc1)S(=O)(=O)N(Cc1ccccc1)[C@@H](CO)CC(C)C,-4,-0.9%,nt,-0.2,-18,1,nt
CCn1c(CC(=O)Nc2ccccc2C)nnc1SCC(=O)Nc1nncs1,-4,-0.2%,-3,-1.8,-3,3,13%
O=C(c1ccc2snnc2c1)N1CCN(c2ccccc2)CC1,-11,-1.3%,1,-2.9,-16,-4,0%
COC(=O)Nc1ncc(CN2CCCCC2)s1,-5,-4.5%[38.3 µM],0,-1.0,1,2,4%
O=C1NCCN1C(=O)C12CC3CC(CC(C3)C1)C2,7,-0.4%,3,-2.8,-1,5,4%
O=C(N/C(=C/c1ccccc1Cl)C(=O)N1CCCC1)c1ccccc1,-12,0.4%,-5,3.9,-13,3,-5%
